# Compound activity from PubChem.
# TsaE inh – displaces an ADP probe from E. coli YjeE (TsaE) | P0AF67 | Potency, µM | 71,000 tested, 0.05% active | purified YjeE, fluorescence polarisation of a bound ADP probe; active = well fitted falling curve; inconclusive = weaker or top-dose-only fall, or a rising curve; inactive = flat or poorly fitted curve;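 note: top concentration of the series not given in the record; excess ADP was the control for the full effect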
#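 Purified YjeE (10 uM) with BODIPY Texas Red-labeled ADP probe (2 uM); compounds pin-transferred, 15 min at room temperature. Binding inhibition read as decreased fluorescence polarization; ADP titration as control.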
# PK Bst – pyruvate kinase (B. stearothermophilus) modulation | partly purified Bacillus stearothermophilus pyruvate kinase, luminescence ATP production; ribose 5-phosphate activator present at AC10 | Potency, µM | 51,000 tested, 1.2% active | AID 361; in the data active means potency below about 11 µM; inconclusive means mostly about 12 µM to 25 µM; inactive means weaker than that;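 the screen sought inhibitors and activators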;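 note: potency is the fitted concentration of half-maximal effect; scaled between full activation by ribose 5 phosphate and full inhibition by luteolin; about four in five hits inhibit and the cells do not say which; series up to 57 µM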
# Starred values were filed as active, the others as inactive; i = inactive; ? = inconclusive; nt = not tested or not shown. These rows are one share of the data; count on the stated rates, not on these rows.
SMILES,TsaE inh,PK Bst
COCc1cc(C)nc(SCC(=O)Nc2cccc3cccnc23)c1C#N,i,nt
CCOC(=O)CN1C(=O)C(O)=C(C(C)=O)C1c1ccccc1 (stereo not drawn),i,>57
CCN(C(=O)c1cc(Cl)ccc1OC)C1CCCCC1,i,nt
CC(C)(C)OCC(NC(=O)C(CC(N)=O)NC(=O)OC(C)(C)C)C(=O)OC(C)(C)C (stereo not drawn),i,>57
COc1ccc(NC(=O)CS(=O)CC(=O)NC2CCCc3ccccc32)cc1 (stereo not drawn),i,>11.4
O=C(Nc1nccs1)Oc1ccccc1,i,>57
COc1cc(S(=O)(=O)N2CCN(c3ccc(F)cc3)CC2)ccc1Cl,nt,>25.6
COc1c(F)c(F)c(C(=O)Nc2ccccc2N2CCN(C(=O)C(C)C)CC2)c(F)c1F,i,>57
COc1ccc(C(=O)N2CCC3(CCN(Cc4ccccc4)CC3)CC2)cc1,i,nt
O=C(C1=C(O)C(=O)N(Cc2ccccc2)C1c1cccnc1)c1ccco1 (stereo not drawn),i,>57
O=c1[nH]cnc2cc(-c3ccccc3)sc12,nt,>25.6
CCC1(CC)C(=O)NC(=O)NC1=NCCc1c[nH]c2ccccc12,i,>57
COc1cccc(C(=O)Nc2ncc3c(n2)CC(C)CC3=O)c1 (stereo not drawn),i,>57
CC1CCCN(C(=O)c2ccncc2)C1 (stereo not drawn),i,>57
Cc1cc(NC(=O)CSc2nnc(C3COc4ccccc4O3)o2)no1 (stereo not drawn),i,>57
COc1ccc(/C(O)=C2/C(=O)C(=O)N(CCCC(=O)O)C2c2ccc(OC)cc2)cc1 (stereo not drawn),i,>57
CCC(=O)NC(C)C(c1cccs1)N1CCN(c2ccccc2)CC1 (stereo not drawn),i,>57
CC1N(O)C(c2ccc(Cl)cc2Cl)N(O)C1(C)C (stereo not drawn),nt,>25.6
CN=CC1=C(O)c2ccccc2C1=O,i,nt
CC#CCOC(=O)c1c(C)nc2sc3c(c2c1N)CC[C@@H](O)C3,i,nt

# Filtered by structure, those above containing a thiophene ring, fused or not (three)
SMILES,TsaE inh,PK Bst
O=c1[nH]cnc2cc(-c3ccccc3)sc12,nt,>25.6
CCC(=O)NC(C)C(c1cccs1)N1CCN(c2ccccc2)CC1 (stereo not drawn),i,>57
CC#CCOC(=O)c1c(C)nc2sc3c(c2c1N)CC[C@@H](O)C3,i,nt

# (cont.)
SMILES,TsaE inh,PK Bst
O=C(CSc1ccc2nnc(-c3ccncc3)n2n1)NCC1CCCO1 (stereo not drawn),i,nt
O=C(NC(=O)c1cccc(OC(F)(F)C(F)F)c1)OC1CCS(=O)(=O)C1 (stereo not drawn),i,>57
CCC(=O)N(Cc1cc2cc(OC)ccc2[nH]c1=O)c1cccc(C)c1,i,>57
COc1ccc(S(=O)(=O)Nc2ccc(F)c(Cl)c2)cc1OC,i,nt
CN(C)C(=O)CSc1nnc(CCCCCNC(=O)OC(C)(C)C)o1,i,>57
CCN1CCN(C(C(=O)NC2CCCC2)c2ccc(Cl)cc2)CC1 (stereo not drawn),i,nt
O=c1c(-c2ccc(F)cc2)nc2cnc(Nc3ccccc3)nc2n1C1CC1,i,nt
COC(=O)[C@H](CCSC)NC(=O)NCCC1=CCCCC1,i,>57
Cc1cc(C)c(C)c(OCC(=O)NCC2CCCO2)c1 (stereo not drawn),i,>57
c1ccc2[nH]c(SCCN3CCOCC3)nc2c1,i,nt
COc1ccc(-n2c(C)nc3c(cnn3-c3ccc(C)c(C)c3)c2=O)cc1,i,nt
c1ccc2[nH]c(CN3CCCCCC3)nc2c1,i,>57
CN(Cc1ccco1)c1cc(-c2cccc(C#N)c2)ncn1,i,nt
CC12CCC(C(=O)N(CCC#N)CCC#N)(CC1=O)C2(C)C (stereo not drawn),nt,>25.6
CN1CCN(c2nc3c(c(=O)n(C)c(=O)n3C)n2CC(N)=O)CC1,i,>57
Cc1cccc(CN2CCN(CC(=O)NCc3ccc(F)cc3)C2=O)c1,i,nt
COc1ccccc1NC(=O)CN1C(=O)NC(C)(C)C1=O,i,>57
CN(CCc1ccccn1)C(=O)Nc1ccc(F)cc1,i,>57
CCOc1ccc(-c2nnc3ccc(SCC(=O)N4CCCCC4)nn23)cc1,i,nt
O=C(OC1CCOC1=O)c1ccc2ncsc2c1 (stereo not drawn),i,>57
Cc1nc2ncnn2c(N2CCC(C(=O)NCC3CCCO3)CC2)c1Cc1ccccc1 (stereo not drawn),i,>57
O=C1NC(c2cccs2)Nc2sc3c(c21)CCCC3 (stereo not drawn),i,2.89*
C[C@H]1[C@H](O)[C@@H](C)C=CC=CC=CC=CC=CC=CC=C[C@H](O[C@@H]2O[C@@H](C)[C@H](O)[C@@H](N)[C@@H]2O)C[C@@H]2O[C@](O)(C[C@@H](O)C[C@@H](O)[C@@H](O)CC[C@@H](O)C[C@@H](O)CC(=O)O[C@H]1C)C[C@H](O)[C@H]2C(=O)O,i,nt
COc1cc(C(=O)OC(C)CN2CCN(C)CC2)cc(OC)c1OC (stereo not drawn),i,>57
O=C1c2cccnc2C(O)N1Cc1ccc(F)cc1 (stereo not drawn),i,>57
CCN(CCNC(=O)C1CCCN(S(=O)(=O)CC)C1)c1ccccc1 (stereo not drawn),i,>57
COc1cccc2cc(-c3csc(CCn4nc(C)cc4C)n3)c(=O)oc12,i,nt
CCCCN(C(=O)CCC(=O)O)C1CC(=O)N(c2ccc(OCCC)cc2)C1=O (stereo not drawn),nt,>25.6
Fc1ccccc1CSc1nnc(-c2ccccc2)o1,i,nt
Cc1cc(NC(=O)CSc2nnc(-c3ccoc3C)n2N)no1,i,>57
CCOC(=O)C(CC)Sc1nc(N)c(NC(=O)c2ccc(OC)c(OC)c2)c(=O)[nH]1 (stereo not drawn),i,nt
Cc1nc2cnc(Oc3ccccc3)nc2n(CCC#N)c1=O,i,nt
Cc1nc(Nc2ccc(F)cc2)[nH]c(=O)c1CCC(C)C,i,>57
O=S(=O)(NCC1CCCO1)c1cc(Br)c(Br)s1 (stereo not drawn),i,?
COCCCNc1oc(COc2ccc(Cl)cc2Cl)nc1C#N,i,>57
CCCCN(Cc1ccccc1)C(=O)C1CCCN(S(=O)(=O)c2cnc[nH]2)C1 (stereo not drawn),i,nt
CC1CCN(C(=O)c2cc3ccccc3o2)CC1,i,>57
N#C/C(=C\Nc1ccccn1)C(=O)C1CC1,i,nt
Cn1c(=O)[nH]c(=O)c2c1nc(N1CCOCC1)n2CC(O)COc1ccccc1 (stereo not drawn),i,>57
CCn1c(C)nc2cc(S(=O)(=O)C(F)(F)C(F)C(F)(F)F)ccc21 (stereo not drawn),i,>57

# 6 compounds picked at random from the list so far:
SMILES,TsaE inh,PK Bst
Cc1nc(Nc2ccc(F)cc2)[nH]c(=O)c1CCC(C)C,i,>57
CC1CCN(C(=O)c2cc3ccccc3o2)CC1,i,>57
Cc1nc2cnc(Oc3ccccc3)nc2n(CCC#N)c1=O,i,nt
COCCCNc1oc(COc2ccc(Cl)cc2Cl)nc1C#N,i,>57
CCn1c(C)nc2cc(S(=O)(=O)C(F)(F)C(F)C(F)(F)F)ccc21 (stereo not drawn),i,>57
O=C1NC(c2cccs2)Nc2sc3c(c21)CCCC3 (stereo not drawn),i,2.89*

# Next part:
SMILES,TsaE inh,PK Bst
N#CC1=C(N)OC2=C(C(=O)CCC2)[C@]12C(=O)N(CC(N)=O)c1ccccc12,nt,>25.6
NC(=O)C1CCCN(C(=O)Nc2cccc3ccccc23)C1 (stereo not drawn),i,>57
O=C(CCSc1nc2cc(Cl)ccc2o1)N1CCOCC1,i,>57
O=C(CSc1ncn(-c2ccccc2)n1)Nc1ccc2c(c1)OCO2,i,>57
Cc1nc2nc(-c3ccccc3)cn2nc1C,i,i
Cn1c(=O)c(=O)n(C)c2cc(S(=O)(=O)CCC(=O)N3CCOCC3)ccc21,i,nt
N#CCCN(Cc1cccnc1)S(=O)(=O)c1ccc(S(=O)(=O)N2CCCCCC2)cc1,i,>57
O=C(Nc1ccc2c(c1)OCO2)C1CCCN1C(=O)NCc1ccccc1 (stereo not drawn),i,>57
O=C1CC(NCc2ccccc2F)C(=O)N1c1ccccc1 (stereo not drawn),i,>57
CO[C@]1(C2=NCCN2)COc2ccccc2O1,i,nt
COC(=O)N1CCC2(CCN(C(=O)Nc3ccccc3)CC2)CC1,i,nt
COc1ccccc1NS(=O)(=O)c1ccc(NC(=O)c2nc3ncccn3n2)cc1,i,nt
Cc1ccc(NCc2nnc(SCC(=O)Nc3ncc(C)s3)n2CC2CCCO2)c(C)c1 (stereo not drawn),i,>57
Nc1cccc(C(=O)O)c1,nt,>25.6
CN(C)c1ccc(-c2nnn(Cc3ccccc3Br)n2)cc1,i,>57
CC1CCN(c2oc(-c3cccc4ccccc34)nc2C#N)CC1,i,>57
COC(=O)COc1cccc(NC(=O)COc2ccccc2)c1,i,nt
Cc1nc2c([nH]c3ccc(Br)cc32)s1,i,>57
O=C(O)C1C2C=CC(C2)C1C(=O)N1CCN(CCO)CC1 (stereo not drawn),i,nt
Cc1ccc2c(c1)NC(=O)C(CC(=O)NCCCN1CCCCC1)O2 (stereo not drawn),i,nt
CC(NC(=O)Cc1cccs1)c1ccncc1 (stereo not drawn),i,>57
O=C(Cn1c(=O)n(Cc2ccco2)c(=O)c2c3c(sc21)CCCC3)Nc1ccccc1,i,>57
COc1ccc(CN(C(C)=O)c2cccc(C)c2C)cc1,i,>57
COc1cc(S(=O)(=O)N2CCN=C2c2ccccc2)ccc1F,i,>57
COC(=O)CSc1nc(N2CCOCC2)c2c(c1C#N)CC(C)(C)N(C)C2,i,>57
O=C(Nc1nc2ccccc2s1)C1CCCO1 (stereo not drawn),i,nt
CC(C)C(NC(=O)c1cccs1)C(=O)NC1=NCCS1 (stereo not drawn),i,>57
COc1ccc(C2C(=O)c3ccccc3C2=O)c(OC)c1,i,>57
CCCCc1cc(=O)oc2cc(C)cc(OCC(=O)O)c12,i,>57
Cc1ccc(-n2c(=O)cc(N3CCc4ccccc4C3)[nH]c2=O)cc1,i,>57
COc1ccc(CN2C(=O)CN(C3CCCCCC3)C(=O)C2c2ccc(OC)c(OC)c2)cc1 (stereo not drawn),i,>57
Cc1ccc(OCC(O)CN2CCN(CC(O)COc3ccc(C)cc3Cl)CC2)c(Cl)c1 (stereo not drawn),i,nt
Cc1csc(NC(=O)CSc2nnc(-c3cccs3)n2C)n1,i,>57
Cc1ccccc1-n1nc2c(c1NC(=O)c1cc3ccccc3oc1=O)CS(=O)C2 (stereo not drawn),i,>57
Cc1csc(NC(=O)c2c(O)c3c(n(CC(C)C)c2=O)CCCC3)n1,i,>57
O=C1COc2ccccc2N1Cc1ccccc1Cl,i,nt
CCN(CC(=O)NCc1cccs1)C(=O)c1cc(S(=O)(=O)N2CCOCC2)ccc1C,i,>57
CCOC(=O)C1CN(S(=O)(=O)c2ccc(C)cc2)CCN1S(=O)(=O)c1ccc(C)cc1 (stereo not drawn),i,>57
CCCOc1ccc(N2CC(C(=O)Nc3ccccn3)CC2=O)cc1 (stereo not drawn),i,>57
Cn1nnnc1SCCNCc1cccc2ccccc12,i,>57
CCOC(=O)C1CCCc2c1[nH]c1c(C(=O)O)cccc21 (stereo not drawn),i,nt
CCOC(=O)c1ccc(N2C(=O)CC(Sc3nc(O)c(CC)c(=O)[nH]3)C2=O)cc1 (stereo not drawn),i,>57
CCOC(=O)C1=C(C)N(c2nonc2NC(C)=O)C(N)=C(C#N)C1c1ccccc1F (stereo not drawn),i,>57
O=C(N=c1nc2ccccn2s1)c1ccccc1,i,1.14*
COC(=O)[C@@]1(Cc2ccc(OC)cc2)[C@H]2c3cc(C(=O)N(C)C)n(Cc4cccc5ccccc45)c3C[C@H]2CN1C(=O)c1ccccc1,i,nt
c1ccc(-c2nnc(CN3CCCc4ccccc43)o2)cc1,i,>57
Cc1ccc(-n2c(CNc3ccc(F)cc3)nnc2SCC(=O)N2CCCC2)cc1,i,>57
Oc1ccc(Cl)cc1CNCC1CCCO1 (stereo not drawn),i,>57
Cc1c2c(nc3ccccc13)-c1cccc(=O)n1C2,i,nt
Cc1noc(C)c1C(=O)N1CCC2(CCCN(C(=O)NC(C)C)C2)CC1,i,nt
NC(=O)c1cnn(Cc2ccc(Cl)cc2)c1N,i,>57
Cc1cnc(NC(=O)CSc2nnc(-c3ccc(Cl)cc3Cl)n2N)s1,i,>57
NC(=O)C1CC=CCC1C(=O)OCC(Cl)=C(Cl)Cl (stereo not drawn),i,nt
CC(=O)NCCSCCNC(C)=O,i,>57
O=C(O)CNC(=O)c1ccc([N+](=O)[O-])cc1,i,nt
Cc1ccc(-c2nn(-c3ccccc3)cc2C2SCC(=O)N2Cc2ccccc2)o1 (stereo not drawn),i,nt
CCSc1nnc(NC(=O)c2nn(C(C)C)c(=O)c3ccccc23)s1,i,>57
N#Cc1cc2c(nc1SCc1cccnc1)CCC2,i,>57
CN(C)C(=O)C1CCN(Cc2c[nH]c3ccccc23)CC1,i,nt
Clc1ccc(-c2nnc(SCc3nc(-c4ccccc4)no3)o2)cc1,i,nt
CCOC(=O)C1CCCN(C(=O)c2cn(CC)c3ccc(S(=O)(=O)N(C)C)cc3c2=O)C1 (stereo not drawn),i,nt
Cc1ccc(NS(=O)(=O)c2cccc(C(=O)OCC(=O)NCc3ccco3)c2)cc1,i,>57

# In another format: two of the compounds above.
Molecule: Cc1noc(C)c1C(=O)N1CCC2(CCCN(C(=O)NC(C)C)C2)CC1
  TsaE inh = i
  PK Bst = nt

Molecule: NC(=O)c1cnn(Cc2ccc(Cl)cc2)c1N
  TsaE inh = i
  PK Bst = >57
